Screening results as filed in PubChem BioAssay.
KCNQ2 pot: enhances the rat KCNQ2 potassium channel. B-score at 10 µM. CHO-K1 KCNQ2, FluxOR thallium flux fluorescence; hits give high values. actives 0.54% (n = 310,000);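 active means fluorescence ratio B-score at least 3 SD of library B-scores, with initial fluorescence B-score within 3 SD, cut at about 5.3 in these data; same plate scores as AID 2156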;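 further: B-score of peak minus minimum over baseline fluorescence ratio after K+ and Tl+ stimulus; positive B-score means potentiation of KCNQ2 with more thallium influx and brighter signal; only the inactives scoring about 0 or higher are listed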
Target sequence (O88943 whole entry, looked up): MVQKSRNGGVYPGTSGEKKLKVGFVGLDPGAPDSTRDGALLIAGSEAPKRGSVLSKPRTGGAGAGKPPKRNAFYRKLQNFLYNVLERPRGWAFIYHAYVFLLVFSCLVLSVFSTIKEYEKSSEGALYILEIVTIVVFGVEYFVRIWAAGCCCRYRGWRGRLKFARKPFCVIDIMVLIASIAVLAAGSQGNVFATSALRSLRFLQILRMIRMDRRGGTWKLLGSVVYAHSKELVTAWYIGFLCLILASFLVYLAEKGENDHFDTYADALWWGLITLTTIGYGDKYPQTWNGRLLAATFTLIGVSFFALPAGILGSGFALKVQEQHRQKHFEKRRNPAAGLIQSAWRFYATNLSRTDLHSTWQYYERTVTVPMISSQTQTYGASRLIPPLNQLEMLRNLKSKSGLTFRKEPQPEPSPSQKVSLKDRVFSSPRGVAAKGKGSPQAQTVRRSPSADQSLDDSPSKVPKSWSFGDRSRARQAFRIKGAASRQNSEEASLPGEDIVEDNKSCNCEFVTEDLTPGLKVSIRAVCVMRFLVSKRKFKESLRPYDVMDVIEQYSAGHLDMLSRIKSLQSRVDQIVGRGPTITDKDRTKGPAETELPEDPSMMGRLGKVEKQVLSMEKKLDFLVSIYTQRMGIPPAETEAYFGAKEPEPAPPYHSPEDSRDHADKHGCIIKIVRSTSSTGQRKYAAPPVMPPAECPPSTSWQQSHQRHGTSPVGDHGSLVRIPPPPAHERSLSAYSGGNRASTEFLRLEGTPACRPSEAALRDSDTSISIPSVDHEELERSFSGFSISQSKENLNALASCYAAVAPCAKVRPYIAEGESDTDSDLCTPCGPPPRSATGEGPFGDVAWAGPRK
KCNQ2 pot baseline: recorded beside KCNQ2 pot, whose call it bears; B-score; compound at 10 µM; measured here: initial fluorescence intensity artifact check;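 brightness before thallium and not channel activity; 0 = typical well and far values either way flag optical interference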
* marks the source's active call; other numbers are inactive results. Not all compounds are listed; count on the stated rates, not on these rows.

What do the screens show for `O=C(NCCCN1CCCC1=O)c1ccccc1NS(=O)(=O)c1ccc(F)cc1`?
KCNQ2 pot: 0.11; KCNQ2 pot baseline: 0.45

What do the screens show for `O=C(Nc1nnc(COc2ccc(Cl)cc2)s1)c1ccc([N+](=O)[O-])cc1`?
KCNQ2 pot: 0.47; KCNQ2 pot baseline: 0.08

Results for CCOc1cc(CNCCc2ccc(S(N)(=O)=O)cc2)ccc1OCC(=O)NC1CCCCC1 ?
KCNQ2 pot: 1; KCNQ2 pot baseline: 0.09

Results for O=C(OCn1nnc2ccccc2c1=O)c1cccs1 ?
KCNQ2 pot: 0.81; KCNQ2 pot baseline: -0.58

What do the screens show for `Cc1oc2c(C)c3oc(=O)c(CCC(=O)NCCN4CCOCC4)c(C)c3cc2c1C`?
KCNQ2 pot: 0.71; KCNQ2 pot baseline: -1.26

What do the screens show for `O=C(Cc1c(F)cccc1Cl)OCN1C(=O)c2ccccc2C1=O`?
KCNQ2 pot: 0.07; KCNQ2 pot baseline: -1.13

Results for O=C(NS(=O)(=O)c1ccccc1)c1cccc(Br)c1 ?
KCNQ2 pot: 0.87; KCNQ2 pot baseline: -1.77

What do the screens show for `CCC(C)NC(=O)C1CCN(S(=O)(=O)c2ccc3c(c2)CC(C)N3C(C)=O)CC1` (centres undefined)?
KCNQ2 pot: 0.58; KCNQ2 pot baseline: 0.25

How did CN(C)S(=O)(=O)c1ccc(Cl)c(C(=O)NC2=NCCS2)c1 do in these assays?
KCNQ2 pot: 0.44; KCNQ2 pot baseline: -0.05

How did CCOC(=O)c1c(NC(=O)CCN2CCOCC2)sc(C)c1-c1ccccc1 do in these assays?
KCNQ2 pot: 2.21; KCNQ2 pot baseline: 0.88

Structural class: the entries above containing a thiophene ring, fused or not.
Results for O=C(OCn1nnc2ccccc2c1=O)c1cccs1 ?
KCNQ2 pot: 0.81; KCNQ2 pot baseline: -0.58

How did CCOC(=O)c1c(NC(=O)CCN2CCOCC2)sc(C)c1-c1ccccc1 do in these assays?
KCNQ2 pot: 2.21; KCNQ2 pot baseline: 0.88

Three structures out of the list, sorted by SMILES length, ascending.
Results for O=C(NS(=O)(=O)c1ccccc1)c1cccc(Br)c1 ?
KCNQ2 pot: 0.87; KCNQ2 pot baseline: -1.77

What do the screens show for `O=C(Nc1nnc(COc2ccc(Cl)cc2)s1)c1ccc([N+](=O)[O-])cc1`?
KCNQ2 pot: 0.47; KCNQ2 pot baseline: 0.08

Results for CCOc1cc(CNCCc2ccc(S(N)(=O)=O)cc2)ccc1OCC(=O)NC1CCCCC1 ?
KCNQ2 pot: 1; KCNQ2 pot baseline: 0.09

(next part)
How did Nc1ccc(CNC(=O)OCC2c3ccccc3-c3ccccc32)cc1 do in these assays?
KCNQ2 pot: 2.04; KCNQ2 pot baseline: -0.01

Results for Cc1cnc(NC(=O)c2ccc3c(c2)C(=O)N(Cc2cccnc2)C3=O)s1 ?
KCNQ2 pot: 0.18; KCNQ2 pot baseline: -0.8

How did CSc1nc(=S)c2[nH]c(=S)[nH]c2[nH]1 do in these assays?
KCNQ2 pot: 1.31; KCNQ2 pot baseline: -1.79

Results for COCCn1c(=O)[nH]c2cc(C(=O)NCCc3ccc(S(N)(=O)=O)cc3)ccc2c1=O ?
KCNQ2 pot: 0.03; KCNQ2 pot baseline: 0.23

How did COc1ccc2oc(C(=O)OCC(=O)Nc3ccc(OC)c(S(N)(=O)=O)c3)c(C)c2c1 do in these assays?
KCNQ2 pot: 2.23; KCNQ2 pot baseline: -0.36

Results for CC(Sc1nc2ccccc2s1)C(=O)Nc1ccc2c(c1)OCO2 (centres undefined) ?
KCNQ2 pot: 2.73; KCNQ2 pot baseline: 1.4

What do the screens show for `CCOc1ccccc1NC(=O)Nc1ccccn1`?
KCNQ2 pot: 0.5; KCNQ2 pot baseline: -0.05

What do the screens show for `CCCCCc1nnc(NC(=O)CS(=O)(=O)Cc2ccccc2)s1`?
KCNQ2 pot: 0.31; KCNQ2 pot baseline: -0.19

Results for CCn1c(OC)nc2c1c(=O)n(C)c(=O)n2C ?
KCNQ2 pot: 0.44; KCNQ2 pot baseline: 1.6

What do the screens show for `COc1ccc(C(=O)C2CCCN(C(=O)c3noc4c3CCCC4)C2)cc1F` (centres undefined)?
KCNQ2 pot: 0.82; KCNQ2 pot baseline: 2.19

How did O=C1CC(C(=O)N2CCOCC2)C2(CCCCC2)O1 (centres undefined) do in these assays?
KCNQ2 pot: 2.15; KCNQ2 pot baseline: -0.03

Results for COc1ccc(Cn2c(=O)c3[nH]cnc3n(-c3ccc(C)cc3)c2=O)cc1 ?
KCNQ2 pot: 0.53; KCNQ2 pot baseline: -0.68

How did O=C(Nc1ccc(F)cc1)c1ccc(COc2ccccc2)cc1 do in these assays?
KCNQ2 pot: 0.1; KCNQ2 pot baseline: 0.43

What do the screens show for `Cn1c(CSCc2ccc(Cl)c(Cl)c2)nnc1SCC(=O)Nc1nccs1`?
KCNQ2 pot: 0.18; KCNQ2 pot baseline: -0.13

How did COC(=O)C1CCN(C(=O)Cc2ccc(OC)c(OC)c2)CC1 do in these assays?
KCNQ2 pot: 0.64; KCNQ2 pot baseline: -0.21

Results for C=CCOc1ccccc1/C=c1\sc2nc(=O)c(C)nn2c1=O ?
KCNQ2 pot: 0.49; KCNQ2 pot baseline: 1.13

Results for Cc1nc2ccccc2c2oc(C(=O)NCC3COc4ccccc4O3)cc12 (centres undefined) ?
KCNQ2 pot: 0.23; KCNQ2 pot baseline: 0.1

What do the screens show for `O=C(CCN1CCN2CCCC2C1)N1c2ccccc2Sc2ccc(Cl)cc21` (centres undefined)?
KCNQ2 pot: 0.24; KCNQ2 pot baseline: 0.08

What do the screens show for `CN(C)/C=C(\C#N)C(=O)N/N=C/c1ccc(Cl)cc1`?
KCNQ2 pot: 1.5; KCNQ2 pot baseline: -1.55

Results for Cc1nnc(SCC(=O)N2CCN(S(=O)(=O)c3ccccc3)CC2)[nH]c1=O ?
KCNQ2 pot: 2; KCNQ2 pot baseline: -0.76

How did CCOc1cc(CN2CCSCC2)ccc1O do in these assays?
KCNQ2 pot: 0.11; KCNQ2 pot baseline: 0.74

What do the screens show for `COc1ccc(C(=O)NC(=S)NCc2ccccc2)cc1OC`?
KCNQ2 pot: 1.54; KCNQ2 pot baseline: -1.35

What do the screens show for `COc1ccc2c(C)c(CC(=O)N3C[C@H]4C[C@@H](C3)c3cccc(=O)n3C4)c(=O)oc2c1OC`?
KCNQ2 pot: 0.94; KCNQ2 pot baseline: -0.73

What do the screens show for `Cc1ccc(-n2c(SCC(=O)Nc3ccc4c(c3)OCCO4)nnc2-c2ccco2)cc1`?
KCNQ2 pot: 2.36; KCNQ2 pot baseline: 0.23

Results for O=C(NCCN1CCOCC1)C1CC(=O)N(c2ccc(F)cc2)C1 (centres undefined) ?
KCNQ2 pot: 0.72; KCNQ2 pot baseline: 0.39

How did CC1CCN(C(=S)NC(=O)c2ccc(C(C)(C)C)cc2)CC1 do in these assays?
KCNQ2 pot: 7.11*; KCNQ2 pot baseline: -0.89*

Results for O=C(c1ccco1)N1CCN(C(=O)c2cc3cc([N+](=O)[O-])ccc3oc2=O)CC1 ?
KCNQ2 pot: 0.92; KCNQ2 pot baseline: -0.51

Results for Cc1ccccc1N1CCN(C2CCCN(C(=O)CCn3cnnn3)C2)CC1 (centres undefined) ?
KCNQ2 pot: 1.24; KCNQ2 pot baseline: 1.81

How did CCc1nnc(NC(=O)CSc2nnc(C3CCCCC3)n2-c2ccccc2)s1 do in these assays?
KCNQ2 pot: 1.2; KCNQ2 pot baseline: -1.15

How did Cc1ccc(NC(=O)CN(C)C(=O)Cc2ccc(Cl)c(Cl)c2)cc1 do in these assays?
KCNQ2 pot: 1.64; KCNQ2 pot baseline: -0.89

Results for COc1cc2c3c(c1OC)C1(C=CC(=NNC(N)=O)C=C1)CC3N(C(C)=O)CC2 (centres undefined) ?
KCNQ2 pot: 2.3; KCNQ2 pot baseline: -0.6

How did CC(=O)NNC(=S)Nc1cc(S(=O)(=O)N(C)C)ccc1C do in these assays?
KCNQ2 pot: 1.25; KCNQ2 pot baseline: 0.76

What do the screens show for `C/C(CC(=O)NC(C)c1ccccc1)=N\NC(N)=S` (centres undefined)?
KCNQ2 pot: 0.87; KCNQ2 pot baseline: -0.05

What do the screens show for `O=C(CSc1nnc(Cc2cc(=O)[nH]c(=O)[nH]2)n1-c1ccccc1)N1CCCCC1`?
KCNQ2 pot: 1.7; KCNQ2 pot baseline: -0.72

What do the screens show for `CCOC(=O)C1CCN(C(=O)COc2ccc(S(=O)(=O)NC(C)(C)C)cc2)CC1`?
KCNQ2 pot: 1.78; KCNQ2 pot baseline: -0.86

How did O=C(NCC(=O)N1CCCC(C(F)(F)F)C1)c1ccc(Oc2ccccc2)cc1 (centres undefined) do in these assays?
KCNQ2 pot: 1.36; KCNQ2 pot baseline: -1.73

What do the screens show for `NC(=O)c1cc(S(=O)(=O)NCCCc2ccccc2)cs1`?
KCNQ2 pot: 0.16; KCNQ2 pot baseline: 2

What do the screens show for `Cc1nc(NC(=O)/C=C/c2ccccc2)sc1C(=O)Nc1ccccc1`?
KCNQ2 pot: 0.42; KCNQ2 pot baseline: -1.23

Results for O=C1CCCC2=C1C1(O)C(=O)c3ccccc3C1(O)O2 (centres undefined) ?
KCNQ2 pot: 0.38; KCNQ2 pot baseline: -0.75

What do the screens show for `CCC1Oc2ccc(C)cc2N(CC(=O)N2CCOCC2)C1=O` (centres undefined)?
KCNQ2 pot: 0.39; KCNQ2 pot baseline: -1.3

Overlap with the part before: 2 compounds; new compounds follow.
Results for O=C1CCCC2=C1C1(O)C(=O)c3ccccc3C1(O)O2 (centres undefined) ?
KCNQ2 pot: 0.38; KCNQ2 pot baseline: -0.75

What do the screens show for `CCC1Oc2ccc(C)cc2N(CC(=O)N2CCOCC2)C1=O` (centres undefined)?
KCNQ2 pot: 0.39; KCNQ2 pot baseline: -1.3

Results for CCn1c(SCC(=O)O)nc2ccccc21 ?
KCNQ2 pot: 0.5; KCNQ2 pot baseline: 0.73

What do the screens show for `CCN(CC)S(=O)(=O)c1cccc(C(=O)OCC(=O)NC(C)c2ccccc2)c1` (centres undefined)?
KCNQ2 pot: 0.08; KCNQ2 pot baseline: 1.71

What do the screens show for `Cc1ccc2[nH]c(=O)c(C(c3nnnn3C(C)(C)C)N3CCN(C(=O)c4ccco4)CC3)cc2c1` (centres undefined)?
KCNQ2 pot: 0.68; KCNQ2 pot baseline: -1.08

Results for CC(=O)Nc1ccccc1Sc1ccc2c3c(cccc13)C(=O)N(c1ccc(C)cc1)C2=O ?
KCNQ2 pot: 0.04; KCNQ2 pot baseline: 1.97

Results for COc1cccc(CN2CCc3[nH]c(=S)[nH]c(=O)c3C2)c1 ?
KCNQ2 pot: 0.25; KCNQ2 pot baseline: 0.59

What do the screens show for `O=C(c1ccccc1F)N1CCN(c2ccc([N+](=O)[O-])c(NCC3CCCO3)c2)CC1` (centres undefined)?
KCNQ2 pot: 1.35; KCNQ2 pot baseline: -0.51

Results for CCOCCCN1C(=O)CN(C2CCCCC2)C(=O)C1c1ccc(OCC)c(OC)c1 (centres undefined) ?
KCNQ2 pot: 0.49; KCNQ2 pot baseline: 0.59

Results for COc1ccc(/C=C/C(=O)NCCOc2ccc(C)cc2)cc1 ?
KCNQ2 pot: 0.85; KCNQ2 pot baseline: -0.39

What do the screens show for `COc1cc(C2NC(=S)NC(c3ccccc3)=C2C(C)=O)ccc1O` (centres undefined)?
KCNQ2 pot: 0.16; KCNQ2 pot baseline: 1.32

Results for CC(=O)NC(Cc1ccc(F)cc1)C(=O)NC1CCN(C(=O)NCc2ccccc2)CC1 (centres undefined) ?
KCNQ2 pot: 0.26; KCNQ2 pot baseline: 0.39

What do the screens show for `Cc1ccc(-c2nnc(SCC(C)C)n2C)cc1`?
KCNQ2 pot: 1.49; KCNQ2 pot baseline: -0.8

How did C[C@@H](CN1C2=NC[C@H](C)N2C[C@H]1Cc1ccc(O)cc1)NC(=O)CCC1CCCCC1 do in these assays?
KCNQ2 pot: 0.12; KCNQ2 pot baseline: 0.43

What do the screens show for `Cc1ccc(CNC(=O)C2CC(c3ccccc3[N+](=O)[O-])=NO2)o1` (centres undefined)?
KCNQ2 pot: 0.18; KCNQ2 pot baseline: -3.09

What do the screens show for `CCN(CC)C(=O)N1CCN(C(=O)N2CCOCC2)CC1`?
KCNQ2 pot: 1.18; KCNQ2 pot baseline: 1.25

How did CSc1ccccc1OCc1cc(C(=O)N(C)C(C)c2ccccn2)no1 (centres undefined) do in these assays?
KCNQ2 pot: 1.67; KCNQ2 pot baseline: 0.47

Results for O=S(=O)(O)c1nc2ccccc2n1Cc1ccc(Cl)cc1 ?
KCNQ2 pot: 0.94; KCNQ2 pot baseline: -0.01

What do the screens show for `Cc1ccc(CNC(=S)NC2CCCCC2)cc1`?
KCNQ2 pot: 6.39*; KCNQ2 pot baseline: -2.73*

Results for Cc1ccc(OCc2nnc(SCC(=O)Nc3ccc4c(c3)OCO4)n2C)cc1 ?
KCNQ2 pot: 0.26; KCNQ2 pot baseline: -1.98

What do the screens show for `O=C(Nc1cccc(S(=O)(=O)Nc2ccccc2F)c1)c1ccc2ccccc2n1`?
KCNQ2 pot: 0.17; KCNQ2 pot baseline: 0.04

What do the screens show for `CCCCCCCCCCC(=O)Nc1cccnc1`?
KCNQ2 pot: 0.59; KCNQ2 pot baseline: 0.05

Results for O=c1c(Sc2ccccc2)c(C(F)(F)F)[nH]n1-c1ccccc1 ?
KCNQ2 pot: 1.84; KCNQ2 pot baseline: -2.52

Results for CCCCSc1oc(-c2ccco2)nc1S(=O)(=O)c1ccccc1 ?
KCNQ2 pot: 0.17; KCNQ2 pot baseline: -0.01

How did CC(NC(=O)c1cc2ccccc2o1)C(=O)O (centres undefined) do in these assays?
KCNQ2 pot: 0.13; KCNQ2 pot baseline: 0.01
